Source: PubChem (several laboratories)
Sa RN4220 lethal – kills Staphylococcus aureus RN4220; actives 0.33% (n = 330,000); inhibition, % (no concentration beside the values); AID 1259311; S. aureus RN4220 growth, OD600, 16 h;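 active = z-score of -3 or lower and OD600 up to 0.18 on both plates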;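 note: plate controls were untreated cells for no effect and reference antibiotic for full effect; stock transfer was 100 nL into about 80 µL; one replicate is shown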
Mtb hypoxia rep – reduces hypoxia-regulated biosensor signal in M. tuberculosis; M. tuberculosis hypoxia-regulated fluorescent reporter, fluorescence; fluorescence inhibition, % (concentration not given with the values); actives 0.1% (n = 300,000); AID 1159583;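 active = 35 to 45% if threefold the growth effect, above 45% if 1.5-fold the growth effect; inactive = the rest, general growth blockers included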;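 note: wells of about 50 µL received 100 nL stock; 0% = vehicle wells and 100% = reference inhibitor wells; whole bacteria with a GFP reporter of the hypoxia response; strong numbers were not always called active; many hits fall short of the cut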
Autofluor counter – flagged as autofluorescent in microsphere protease counterscreen; actives 3.1% (n = 360,000); compound autofluorescence counterscreen, microsphere flow cytometry; hits give high values; fluorescence intensity (no concentration beside the values); AID 624483;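 active = at least 3 SD above the mean of all compounds, about 16000 in these data; inconclusive = too few beads counted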;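 note: 100 nL of 1 mM stock went into each well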
BJeLR viability – kills HRASV12-expressing BJeLR cells; inhibition, % (no concentration beside the values); actives 0.17% (n = 300,000); BJeLR (HRASV12) viability, CellTiter-Glo ATP luminescence, 48 h; reference of the scale not given here; AID 1554;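 active = replicate mean above 50%; inconclusive = above 50% but judged a plate artefact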;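 note: 50 nL library stock added to about 25 µL; numbers are from one replicate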
PrP UTR inh – inhibition of PrP 5' UTR reporter expression | cell-based PrP 5' UTR mRNA reporter, plate reader | inhibition, % (test concentration not listed) | actives 0.35% (n = 340,000) | AID 488862;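 active = every replicate at 50% or more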;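 note: 0 = median of the neutral control wells; tested in H4 reporter cells; numbers are from one replicate; inactives centre near -14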
ugtP null kill – compounds lethal to S. aureus RN4220 ugtP deletion mutant. OD600 growth, 16 h; some inactives read as strong as hits. growth inhibition, % (test concentration not listed). actives 0.54% (n = 330,000);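 active = z-score under -3 and OD600 up to 0.15 on both plates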;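 note: plate controls were untreated wells for no effect and antibiotic for full effect; wells of about 80 µL received 100 nL stock; the first replicate is given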
Mtb hypoxia rep growth – also measured in Mtb hypoxia rep; calls as there; growth inhibition, %; measured here: M. tuberculosis growth (absorbance);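 0% = vehicle and 100% = reference antibiotic; read after six days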
* hit, by the source's call; ? = inconclusive; nt = no result given.

Order of results – Sa RN4220 lethal, Mtb hypoxia rep, Mtb hypoxia rep growth, Autofluor counter, BJeLR viability, PrP UTR inh, ugtP null kill
CCOC(=O)C(C)(C)N(Cc1cccc(C)c1)S(=O)(=O)c1ccc(Cl)c([N+](=O)[O-])c1
→ 0.2, 7, 0, 2388, -5, -6, 34
CCCCC(=O)Nc1cc(OCC)c(NC(=O)c2ccccc2[N+](=O)[O-])cc1OCC
→ 4.5, 9, 12, 10847, -1, -24, 3
CCCCN(C(=O)CN1C(=O)C2CCCCC2C1=O)c1c(N)n(CCC)c(=O)[nH]c1=O (stereo unspecified)
→ 1.6, -3, 8, 4837, 1, -6, 3
O=C(Cc1ccccc1)N1CCC(c2nc3ccccc3[nH]2)CC1
→ 3.0, 10, 8, 10494, 1, -6, 8
O=C1c2ccccc2C(=O)N1CCCCN(C(=O)c1ccc([N+](=O)[O-])cc1)c1ccc(Cl)cc1
→ -10, nt, nt, 3644, -1, -4, 2
Cc1ccc(NC(=O)c2ccc(C(=O)c3ccccc3)cc2)nc1
→ 4.8, 10, 9, ?, -2, -64, 4
COc1ccc(/C=C/C(=O)Nc2ccc(-n3nncc3-c3ccccc3)cc2)cc1OC
→ 3.9, 5, -7, 2492, -13, -4, -1
c1cc2c(cc1C1=Nn3c(nnc3C3CCCCC3)SC1)OCO2
→ 11, 8, -3, 9925, 4, -13, -8
CCOC(=O)C1=C(N)Oc2cc(O)ccc2C1c1ccc(C)cc1 (stereo unspecified)
→ -6.4, -5, -4, 4060, -5, -14, -13
NC(=O)COC(=O)c1cccc(S(=O)(=O)N2CCCCC2)c1
→ 0.3, 8, -3, 3214, 13, -23, 1
C/C(N)=C(/C#N)C(=O)COC(=O)C1CCC(C(C)(C)C)CC1 (stereo unspecified)
→ 2.1, 19, 15, 2905, 0, -2, 10
O=C(NCCCN1CCOCC1)c1ccccc1N1C(=O)[C@@H]2Cc3c([nH]c4ccccc34)C(c3cccc(Cl)c3)N2C1=O (stereo partly specified)
→ 12, nt, nt, 4204, -5, -15, 4
O=C(c1ccccc1Cc1ccccc1)N1CCN(S(=O)(=O)c2ccccc2Br)CC1
→ 31, 3, 3, 6621, 5, -20, -7
Cc1n[nH]c(C)c1S(=O)(=O)N1CCCC(C(=O)Nc2ccc(Br)cc2)C1 (stereo unspecified)
→ 2.2, -5, -8, 5086, 3, -3, 6
CSc1nnc(NC(=O)c2ccc(C)c(S(=O)(=O)N3CCOCC3)c2)s1
→ 5.3, 11, 10, 3083, -14, -15, -2

The results go on.
Order of results – Sa RN4220 lethal, Mtb hypoxia rep, Mtb hypoxia rep growth, Autofluor counter, BJeLR viability, PrP UTR inh, ugtP null kill
Cn1cc(C(=O)C(=O)N2CCOCC2)c2ccccc21
→ 4.5, 3, -2, 4481, -8, -5, 8
O=C(Nc1nnc(CC(c2ccccc2)c2ccccc2)s1)c1ccco1
→ 0.5, -3, -1, 10999, 14, -8, -17
O=C(CN1CCCCCCC1)Nc1cccc(Cl)c1Cl
→ 4.7, 15, 13, 4530, 5, -19, 5
COc1cc2nc(NC(=O)c3ccc(Cl)cc3)sc(=O)c2cc1OC
→ -0.4, 18, 9, 3749, 2, -31, -3
Cc1[nH]c(=O)[nH]c(=O)c1S(=O)(=O)NCCc1ccc(S(N)(=O)=O)cc1
→ 2.5, nt, nt, 3711, 3, -11, 4
COc1ccc(C(C#N)N2N=C(c3ccccc3)CC2c2ccccc2)cc1OC (stereo unspecified)
→ -1.9, -8, 13, 3358, -10, -16, 10
CC(=NNC(=O)COc1ccc(C#N)cc1)c1ccccc1OC(F)F
→ 2.2, 4, 12, nt, nt, nt, 1
O=C(Nc1ccc(CSc2ccccc2)cc1)c1ccc(CN2CCOCC2)cc1
→ 0.6, 24, 7, 2162, -9, -19, 1
COc1cc(OC)c(/C=N/NC(=O)c2ccncc2)c(OC)c1
→ nt, nt, nt, 4611, -16, -8, nt
CCSc1nnc(NC(=O)c2cccc(S(=O)(=O)N(C)c3ccccc3)c2)s1
→ 24, 4, 5, 1998, 3, -16, 1
CCCC(C1=C(O)CC(C)(C)CC1=O)C1C(=O)CC(C)(C)CC1=O (stereo unspecified)
→ 1.8, nt, nt, 3749, 5, -3, 2
COC(=O)c1ccc2c(c1)N(C)C(=O)CS2
→ 5.2, 4, 3, 10527, 0, -7, 12
CCCn1nnnc1NC(=O)c1ccc2ccccc2c1
→ 32, 7, -1, 1984, 1, -20, 10
COc1ccc(NC(=O)C2CCC(N3C(=O)C4C5C=CC(C5)C4C3=O)CC2)cc1 (stereo unspecified)
→ 5.1, nt, nt, 4658, 1, 9, 6
CC1(C)CC(O)C(C)(C)N1O (stereo unspecified)
→ 0.2, -1, -2, 4016, 11, -12, 11

More compounds
Order of results – Sa RN4220 lethal, Mtb hypoxia rep, Mtb hypoxia rep growth, Autofluor counter, BJeLR viability, PrP UTR inh, ugtP null kill
CCc1c(C)nc(SCc2ccccn2)[nH]c1=O
→ 2.8, 9, 2, 2649, 6, -20, -1
CCOc1ccc2[nH]c(=O)c(CN(Cc3cccs3)Cc3nnnn3C(C)(C)CC)cc2c1
→ 9.2, -3, 7, 9984, 2, -11, -6
O=C(Nc1ccc(Nc2ccccc2)cc1)c1c(F)c(F)c(F)c(F)c1F
→ 1.2, 4, -3, 3173, -5, 9, -5
COC(=O)/C=C1/S/C(=N/NC(=O)c2ccc(OC)cc2)NC1=O
→ 1.2, 4, 6, 5643, 2, -6, 4
CC(=O)NNC(=O)c1csc(Cc2c(Cl)sc3ccc(Cl)cc23)n1
→ 0.1, 8, 13, 4390, -4, 0, 5
N#C/C(=C/c1ccc(N2CCCCC2)o1)C(=O)Nc1ccc(Cl)cc1
→ 2.2, -52, 9, 17947*, 6, nt, -2
CCCN1CCc2cccc3c2[C@H]1Cc1ccc(O)c(O)c1-3
→ nt, nt, nt, 5280, 5, -1, nt
O=C(COc1ccc(C(=O)NCC2CCCO2)cc1)Nc1cccc(C(F)(F)F)c1 (stereo unspecified)
→ 1.3, -7, 0, nt, -8, -2, 0
O=C(NC1CC1)c1ccc(CN(c2ccccc2)S(=O)(=O)c2ccccc2)cc1
→ 12, 12, -7, 3117, 0, -18, 13
O=C(NN=CC(c1ccccc1)c1ccccc1)c1ccccc1F
→ 8.6, 13, -1, nt, nt, nt, 3
Fc1cccc(/C=N/Nc2cc(N3CCOCC3)ncn2)c1
→ nt, nt, nt, 3658, 7, -42, nt
Cc1cc(C)cc(OCC(=O)OCC(=O)NCc2ccco2)c1
→ -2.0, -4, 1, 4562, -4, -22, -3
CCOC(=O)c1ccc(NC(=O)CC2C(=O)N(c3ccc(F)cc3)C(=O)N2CCCOC)cc1 (stereo unspecified)
→ 3.6, 6, 6, 8105, -12, 1, 17
Cc1noc2ncnc(Sc3c(Cl)cccc3Cl)c12
→ -0.5, 5, -3, 4184, 9, -5, 5
COc1ccc(CN2CC(C(=O)NCc3ccccn3)CC2=O)cc1 (stereo unspecified)
→ 11, -1, 3, 2841, -2, -15, 3

Remaining list, next part:
Order of results – Sa RN4220 lethal, Mtb hypoxia rep, Mtb hypoxia rep growth, Autofluor counter, BJeLR viability, PrP UTR inh, ugtP null kill
COc1ccccc1CN(C)C(=O)CN1C(=O)c2ccccc2C1=O
→ 1.0, 11, -3, 3684, 8, -18, -4
CC(C)Oc1cccc(C(=O)NC(=S)Nc2ccc3c4c(cccc24)CC3)c1
→ 9.7, nt, nt, 3144, 1, -18, 15
Cc1cccc(C(=O)NN2S(=O)(=O)c3ccccc3S2(=O)=O)c1
→ 4.8, 7, 4, 4387, 7, -1, 12
CN(C)C(=S)Nc1ccc([N+](=O)[O-])cc1
→ 3.2, 9, 1, 2625, 3, -11, 2
CCOC(=O)c1cc2[nH]c3ccccc3c2[n+](-c2ccc([N+](=O)[O-])cc2)c1N
→ 4.1, 3, 7, 2204, 5, -11, 0
CC(C)c1nnc(SCC(=O)Nc2ccc3c(c2)OCO3)n1C
→ 2.7, nt, nt, 4402, -3, -7, 6
O=C(Cn1cnc2ccccc2c1=O)c1ccc2ccccc2c1
→ -2.3, 7, -1, 3207, -6, -38, -9
Cc1ccc(S(=O)(=O)N(C)C)cc1NC(=O)COC(=O)Cc1ccsc1
→ 3.1, 9, -4, 5409, -6, -12, 8
COc1ccc(C(=O)N/C(=C\c2cn(C)c3ccccc23)C(=O)N2CCN(C)CC2)cc1OC
→ 0.7, 6, 1, 4681, -5, -3, 8
NCCCCCNC(=O)c1[nH]cnc1C(=O)NC(Cc1ccccc1)C(=O)OCc1ccccc1 (stereo unspecified)
→ -1.3, 11, 12, nt, nt, nt, 0
CCN(Cc1cc2ccc(C)cc2[nH]c1=O)C(=O)c1cccnc1
→ 8.3, -1, 1, nt, 4, nt, 6
Cc1nc(-c2noc(-c3cccc(Cl)c3)n2)c(C(F)(F)F)o1
→ 1.8, 8, 2, 6368, -3, -29, 17
Cc1ccc(-c2nn(C)c(=O)c3ccccc23)cc1CNC(=O)c1ccccc1
→ 5.7, 6, 3, nt, -3, nt, 1
CCN(CC)Cc1c(O)ccc2c1O/C(=C\C=C\c1ccccc1)C2=O
→ 4.1, 15, 8, 4409, 93*, -27, -2
COC1=C(c2ccccc2)C(=O)c2ccccc2C1=O
→ 57, 9, 6, 2226, nt, -30, 57

Remaining list, next part
Order of results – Sa RN4220 lethal, Mtb hypoxia rep, Mtb hypoxia rep growth, Autofluor counter, BJeLR viability, PrP UTR inh, ugtP null kill
O=C(Nc1cccnc1)C1OCCc2ccccc21 (stereo unspecified)
→ -3.1, nt, nt, 2567, 10, -13, 6
O=[N+]([O-])c1ccc2c(c1)C(N1CCOCC1)C(=CCOc1ccc(Cl)cc1Cl)O2 (stereo unspecified)
→ 0.8, 8, 1, nt, nt, nt, -10
CCN(CC)c1ccc(C(=O)NN=C(C)c2ccc(OC)c(OC)c2)cc1
→ 8.4, 5, -5, nt, nt, nt, 1
O=C(OCc1ccccc1)N1CCOCCN(C(=O)OCc2ccccc2)CCOCC1
→ 2.9, -5, 0, 3129, 1, -17, -3
COc1cc(CNc2nnnn2C)ccc1OCc1ccc(F)cc1Cl
→ 4.1, -4, 12, 2285, -6, -24, -4
CC1=C(C(=O)Nc2ccccc2)C(c2coc3ccccc3c2=O)C2=C(CCCC2=O)N1 (stereo unspecified)
→ 4.4, -6, 0, 2070, -5, -8, 15
COc1cccc2cc(C(=O)NCCc3c[nH]c4ccccc34)c(=O)oc12
→ 1.1, -15, 8, 2103, 5, 2, -4
CCc1ccc(/C=N\NC(=O)c2ccc(Br)o2)s1
→ nt, nt, nt, 10313, 7, -19, nt
Cc1cc(NN=C2CCCc3ccccc32)nc2ccccc12
→ -4.2, -16, 6, nt, nt, nt, 1
O=C(Nc1cc(S(=O)(=O)N2CCCCC2)ccc1Cl)c1ccccc1NS(=O)(=O)c1ccc(F)cc1
→ 30, -3, 4, 2501, 51*, -1, 39
O=C(Cn1cc(C(F)(F)F)ccc1=O)NCc1ccc(F)cc1
→ 1.2, -9, -7, 5321, -2, -39, 11
COCCN(C(=O)CCC(=O)Nc1nccs1)C(C(=O)NC(C)(C)C)c1ccc(Cl)cc1 (stereo unspecified)
→ 5.0, 5, -3, 4590, -9, -12, 12
CCCCSc1nc2c(cnn2-c2ccc(Cl)cc2)c(=O)[nH]1
→ 0.8, nt, nt, 2379, 22, -27, -4

An excerpt from above with just ugtP null kill and BJeLR viability.
| Structure | ugtP null kill | BJeLR viability |
| --- | --- | --- |
| O=C(Nc1cc(S(=O)(=O)N2CCCCC2)ccc1Cl)c1ccccc1NS(=O)(=O)c1ccc(F)cc1 | 39 | 51* |
| O=C(Cn1cc(C(F)(F)F)ccc1=O)NCc1ccc(F)cc1 | 11 | -2 |
| COCCN(C(=O)CCC(=O)Nc1nccs1)C(C(=O)NC(C)(C)C)c1ccc(Cl)cc1 (stereo unspecified) | 12 | -9 |
| CCCCSc1nc2c(cnn2-c2ccc(Cl)cc2)c(=O)[nH]1 | -4 | 22 |
